Assay outcomes (PubChem)
VDR inhibitor – Inhibitors of the vitamin D receptor (VDR): qHTS | 400,000 tested, 0.93% active | Potency, µM, inactives show max response, negative = inhibition, hits mostly inhibitors | VDR-SRC2-3 peptide fluorescence polarization, 2 h; active = well fitted inhibition curve with a large enough effect; inconclusive = small, poorly fitted or top-dose-only effect, or another doubt; inactive = no such curve, though single readings can be large or run the other way; note: series mostly up to about 120 µM
Target sequence (P11473 whole entry, looked up): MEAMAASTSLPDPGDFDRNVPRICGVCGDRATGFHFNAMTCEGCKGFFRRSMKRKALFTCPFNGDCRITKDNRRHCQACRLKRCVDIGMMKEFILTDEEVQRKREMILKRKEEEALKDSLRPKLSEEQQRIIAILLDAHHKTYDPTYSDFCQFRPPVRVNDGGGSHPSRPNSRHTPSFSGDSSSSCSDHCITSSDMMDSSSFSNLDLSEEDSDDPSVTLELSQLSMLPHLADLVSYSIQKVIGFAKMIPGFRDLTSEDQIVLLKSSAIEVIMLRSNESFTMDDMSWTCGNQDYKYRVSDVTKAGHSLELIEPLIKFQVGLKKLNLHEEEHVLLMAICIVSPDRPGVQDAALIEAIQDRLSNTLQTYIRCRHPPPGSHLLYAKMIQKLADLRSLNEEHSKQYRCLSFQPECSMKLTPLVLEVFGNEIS
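Measured by FP: displacement of SRC2-3 coactivator peptide from VDR by library compounds, following a two-hour ambient incubation.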
* marks the source's active call; other numbers are inactive results; ? = inconclusive; & = joins results of further samples. % is set by controls: 0 for no effect and ±100 for the full control effect; potency is the fitted concentration of half-maximal effect. Not all compounds are listed. The share of hits here may be higher or lower than overall.

SMILES	VDR inhibitor
C[C@@]12C(=O)N(Cc3ccco3)CC(=O)N1[C@H]1c3ccccc3OC[C@@H]1[C@@H]2c1ccccc1	?
O=C(C1CCCN(S(=O)(=O)c2cccc3nsnc23)C1)N1CCC2(CC1)OCCO2 (stereo not given)	10%
CC1(C)CSC(Nc2ccc(F)c(Cl)c2)=N1	-3%
CN1C[C@H](CO)C[C@@H]2c3cccc4[nH]cc(c34)C[C@H]21	-10%
O=C1C2(c3ccccc3)CN3CN(C2)CC1(c1ccccc1)C3	8%
O=C(NC1(C(F)(F)F)Oc2ccc(Cl)cc2O1)N1CCC2(CC1)OCCO2 (stereo not given)	2%
C[N+]1(C)CCCCC1COC(=O)C(O)(c1ccccc1)c1ccccc1 (stereo not given)	7%
CCCCCCC(C)OC(=O)COc1ccc(Cl)cc1Cl (stereo not given)	4%
C[N+]1([O-])[C@@H]2CC[C@H]1CC(OC(=O)[C@@H](CO)c1ccccc1)C2 (stereo not given in full)	-9%
O=C1NC(=S)NC(=O)C12C(c1ccccc1)NC(=S)NC2c1ccccc1 (stereo not given)	?
CCc1ccccc1NC(=O)CN1CCN(C(=O)COc2ccccc2C#N)CC1	3%
CSc1ncc(/C=C2/C(=O)NC(=O)N(C3CCCCC3)C2=O)cn1	20µM*
O=C(Nc1ccc(Cl)cc1)N1CC2CC(C1)c1cccc(=O)n1C2 (stereo not given)	-2%
CC(=O)OC1(c2ccccc2)CCN(C)CC1(C)C (stereo not given)	-28%
Cc1cc(C)c2c(ccc3cccc[n+]32)c1	-18%
c1ccc2cc(C3N4CCCN34)ccc2c1 (stereo not given)	10%
CC1([N+](=O)[O-])COP(=O)(NCc2cccnc2)OC1 (stereo not given)	4%
CC(=O)N(C1=NCCCS1)c1ccccc1Cl	-17%
CNCC(C)c1ccccc1 (stereo not given)	7%
O=C(c1ccccc1F)c1cn(Cc2ccccc2)c2ccccc12	6%
C[C@H]1O[C@@H](O[C@H]2[C@@H](O)C[C@H](O[C@H]3[C@@H](O)C[C@H](O[C@H]4CC[C@@]5(C)[C@H](CC[C@@H]6[C@@H]5CC[C@]5(C)[C@@H](C7=CC(=O)OC7)CC[C@]65O)C4)O[C@@H]3C)O[C@@H]2C)C[C@H](O)[C@@H]1O	3%
COC(=O)C1=C(c2ccc(-c3ccccc3)c(F)c2)C[C@@H]2CC[C@H]1N2C(=O)NCCc1ccccc1	4%
COc1ccc(NC(=O)c2cccn(Cc3ccc(Cl)cc3)c2=O)c(OC)c1	-2%
COc1ccc(F)cc1C(=O)C1CCCN(Cc2ccc(O)cc2)C1 (stereo not given)	3%
Clc1ccc(N2CCN(Cc3ccccc3Cl)CC2)cc1	2%

Brought forward from above: 2 entries, then new ones.
SMILES	VDR inhibitor
COc1ccc(F)cc1C(=O)C1CCCN(Cc2ccc(O)cc2)C1 (stereo not given)	3%
Clc1ccc(N2CCN(Cc3ccccc3Cl)CC2)cc1	2%
C/C=C(/C)C(=O)OC1CC[C@]2(C)C3CCC4[C@]5(O)CC(O)[C@]6(O)C(CN7CC(C)CCC7[C@]6(C)O)[C@]5(O)C[C@@]42O[C@]13O (stereo not given in full)	19%
Cc1cc(C(=O)NP(=O)(N2CCOCC2)N2CCOCC2)c(C)n1C1CC1	8%
Cc1nn(Cc2ccccc2Cl)c(Cl)c1C(=O)OC(C(=O)NC(N)=O)C(C)C (stereo not given)	-9%
O=S1OCC2C(CO1)C1(Cl)C(Cl)=C(Cl)C2(Cl)C1(Cl)Cl (stereo not given)	-1%
COc1ccc(C)cc1NC(=O)c1c(C)nn(Cc2ccccc2)c1Cl	-7%
CCN(CC)C(=O)c1ccc(NC(=O)c2cn(-c3ccccc3)nc2-c2ccc(OC)cc2)cc1	8%
CCCn1nc2ccccc2c1P(=O)(N1CCOCC1)N1CCOCC1	7%
CN1CCN(c2ccc(N)cc2)CC1	-5%
COP(=O)(OC)C(NS(=O)(=O)c1ccccc1)C(Cl)(Cl)Cl (stereo not given)	2%
CCC(C)N1CCN(C(=O)COc2ccc3ccccc3c2)CC1 (stereo not given)	0%
CCOP(=S)(OCC)OCCSCC	-12%
O=c1c2ccccc2nc(-c2ccccc2)n1-c1cccnc1	-4%
CCNC(=O)NC(=O)C(C)OC(=O)c1c(C)nn(Cc2ccccc2Cl)c1Cl (stereo not given)	-2%
CCCOc1ccccc1NP(=O)(Oc1ccccc1)Oc1ccccc1	9%
COc1ccc(CNCCc2ccccc2F)c(OC)c1C	2%
O=C1CC(C(=O)N2CCC3(CC2)OCCO3)CN1CCc1ccccc1 (stereo not given)	9%
CCc1ccccc1N1C(=O)NC(=O)/C(=C\c2cc(C)n(C)c2C)C1=O	?
CCC(=O)CC(c1ccccc1)c1c(O)c2ccccc2sc1=O (stereo not given)	1%
COC(=O)C(C)NC(=S)N1CC2C[C@@H](C1)Cn1c2cccc1=O (stereo not given in full)	6%
O=C(CN1CCCCC1)c1cccc(Br)c1	-29%
CCCCCn1c(Sc2ccccc2)nc2c1c(=O)[nH]c(=O)n2C	?
COCCN(C(=O)CCl)c1c(C)cccc1C	9%
COc1ccccc1-n1c(-c2ccccc2)nc2ccccc2c1=O	-6%
C=CCn1c(O)c(C(CC)=NCCc2ccccc2)c(=O)[nH]c1=O	18%
Cc1cccc(N2C(=O)NC(=O)/C(=C\c3cc(C)n(-c4sc5c(c4C#N)CCCC5)c3C)C2=O)c1C	16µM*

The list goes on:
SMILES	VDR inhibitor
CC(Cc1cccs1)NCc1ccccc1 (stereo not given)	2%
CC1=CC(=C2C(=O)NC(=S)NC2=O)C=C(C(F)(F)F)N1Cc1ccccc1	-10%
Cc1ccc2cc3c(ccc4ccccc43)c3c2c1CC3	-2%
O=C(Nc1ccccc1)OC1CN=C(N[N+](=O)[O-])NC1 (stereo not given)	12%
O=c1c2ccccc2nc(CN2CCOCC2)n1-c1ccccc1F	-20%
Cc1nc2ccccc2n1C1CCN(Cc2nnnn2CCc2ccccc2)CC1	-11%
CCCC(=O)O[C@@H]1[C@@H](C)[C@@]2(O)[C@@H](C=C(CO)C[C@@]3(O)C(=O)C(C)=C[C@@H]23)[C@@H]2C(C)(C)[C@]12OC(=O)CCC	11%
CCN1CCN(c2nc3ccccc3s2)CC1	10%
Nc1ccc(Cc2ccc(N)cc2)cc1	23%
CCOP(=O)(OCC)c1cc(CC)ccc1O	16%
CCCCCCCCCCCCCCOS(=O)(=O)O	28µM*
Cc1nc2c(c(=O)[nH]1)C(c1ccc([N+](=O)[O-])cc1)c1c(c3ccccc3oc1=O)O2 (stereo not given)	3%
CC(C)NS(=O)(=O)c1ccc(OCC(=O)N2CCN(Cc3ccccc3)CC2)c(Cl)c1	-8%
CN(C)C(=O)Oc1ccc([N+](=O)[O-])cc1	-9%
Clc1ccc(C2=CCC[C@H]3CC[C@@H]2N3)cn1	?
COc1cccc(-n2c(/C=C/c3ccc(O)c(O)c3)nc3ccccc3c2=O)c1	25%
O=C(COc1ccc2ccccc2c1)N1CCN(Cc2ccncc2)CC1	-14%
CC1=NN(Cc2c[nH]c3ccccc23)C(C)(C)C1	12%
C=CCn1c(O)c(C(C)=O)c(=O)[nH]c1=O (tested in a mixture with another compound)	-2%
O=C(c1ccc2c(c1)N(Cc1ccccc1)CCS2)N1CCC2(CC1)OCCO2	2%
COC(=O)NC(=S)Nc1ccccc1NC(=S)NC(=O)OC	-16%&-4%
O=c1c2ccccc2nc(/C=C/c2ccccc2)n1-c1ccccc1F	13%
Cc1ccc2c(c1)C1(CCN(CCc3nc(-c4ccccc4)oc3C)CC1)OC(=O)N2	10%
O=C(C1c2ccccc2C(=O)N2CCc3ccccc3C12)N1CCC2(CC1)OCCO2 (stereo not given)	15%
NP(=O)(Oc1ccc(Cl)cc1)Oc1ccc(Cl)cc1	3%

Next structures
SMILES	VDR inhibitor
CSc1ccc(C(=O)C(C)(C)N2CCOCC2)cc1	-10%
CP(=O)(O)C1=CCNCC1	6%&-1%
CC(C)Cc1[nH]c(=O)c(C#N)c2c1CCC2	-2%
CCC1(OC(=O)CN)C(=O)OCc2c1cc1n(c2=O)Cc2cc3ccccc3nc2-1 (stereo not given)	-7%
O=C(CC[N+](=O)[O-])OCC1OC(O)C(OC(=O)CC[N+](=O)[O-])[C@@H](OC(=O)CC[N+](=O)[O-])C1OC(=O)CC[N+](=O)[O-] (stereo not given in full)	5%
NC(N)=NOCCC(N)C(=O)O (stereo not given)	-1%
COC(=O)C1=C(c2ccccc2OCc2ccccc2)C[C@@H]2CC[C@H]1N2C(=O)NCc1cccc(C(F)(F)F)c1	-6%
CCC(C)n1c(O)c(C=NC(C)c2ccccc2)c(=O)[nH]c1=S (stereo not given)	-1%
O=c1[nH]c(=O)n(Cc2ccco2)c(O)c1C=NCc1cccs1	-12%
CCCCn1c(C)c(C(=O)OCC)c2c(CN3CCOCC3)c(O)ccc21	-5%
COC(=O)C1=C(c2cccc(OC)c2OC)C[C@@H]2CC[C@H]1N2C(=O)NCc1ccc(F)cc1	21%
CCOc1cccc(N2C(=O)/C(=C/c3ccco3)C(=O)NC2=S)c1	?
O=S1(=O)CCN(CCc2c[nH]c3ccccc23)CC1	-15%
COC(=O)C1=C(c2ccc(F)cc2F)C[C@@H]2CC[C@H]1N2C(=O)NCC1CC1	-14%
Cc1ccc(C)c(-n2c(C)nc3ccccc3c2=O)c1	-2%
CCCCCn1c(=O)c(C(=O)Nc2ncccc2C)c(O)c2ccccc21	3%
COC(=O)C1=Nc2ccccc2/C1=C\c1c(O)n(-c2ccc(Br)cc2)c(=O)[nH]c1=O	79µM*
CNS(=O)(=O)c1ccc(N=Cc2c(O)n(-c3ccccc3)c(=O)[nH]c2=O)cc1	27%
C/C=C1/C[N@@+]2(C)CC[C@]34C(=C(C=O)[C@H]1C[C@H]32)Nc1ccccc14	?
COc1ccc(CN2CCCC(C(=O)c3cccc(Cl)c3)C2)cc1 (stereo not given)	0%
CCC[C@@](C)(COC(N)=O)COC(=O)NC(C)C	1%
C[C@]12CCCCC1=CC(=O)C1C2CC[C@@]2(C)C1C[C@@H](F)[C@@H]2O (stereo not given in full)	0%
O=c1c2ccccc2nc(/C=C/c2ccc(O)c(O)c2)n1-c1ccccc1	-21%
CCC1OC2(C)C(O)C(/C=C/C=C/C=C/c3oc(=O)cc(OC)c3C)OC1(C)C2OC(C)=O (stereo not given)	1%
CN1C(=O)C(=Cc2ccc(OCCN(C)c3ccccn3)cc2)C(=O)N(C)C1=O	-16%

Some of the entries so far, in CSV form.
structure,VDR inhibitor
CCC(=O)CC(c1ccccc1)c1c(O)c2ccccc2sc1=O (stereo not given),1%
COC(=O)C(C)NC(=S)N1CC2C[C@@H](C1)Cn1c2cccc1=O (stereo not given in full),6%
O=C(CN1CCCCC1)c1cccc(Br)c1,-29%
CCCCCn1c(Sc2ccccc2)nc2c1c(=O)[nH]c(=O)n2C,?

Single values from the results shown:
`CC(C)Cc1[nH]c(=O)c(C#N)c2c1CCC2` – VDR inhibitor = -2%
`COc1ccc(C)cc1NC(=O)c1c(C)nn(Cc2ccccc2)c1Cl` – VDR inhibitor = -7%
`CC1=CC(=C2C(=O)NC(=S)NC2=O)C=C(C(F)(F)F)N1Cc1ccccc1` – VDR inhibitor = -10%
`COc1ccc(CNCCc2ccccc2F)c(OC)c1C` – VDR inhibitor = 2%

Ordered by molar mass (falling): part of the list above.
SMILES	VDR inhibitor
CCCCCn1c(Sc2ccccc2)nc2c1c(=O)[nH]c(=O)n2C	?
COc1ccc(F)cc1C(=O)C1CCCN(Cc2ccc(O)cc2)C1 (stereo not given)	3%
CSc1ccc(C(=O)C(C)(C)N2CCOCC2)cc1	-10%
CC(Cc1cccs1)NCc1ccccc1 (stereo not given)	2%
C=CCn1c(O)c(C(C)=O)c(=O)[nH]c1=O (tested in a mixture with another compound)	-2%

More compounds.
SMILES	VDR inhibitor
CC1(C)NCCN2C(=O)CSC21 (stereo not given)	-7%
Cc1cc(/C=C2\C(=O)NC(=O)N(c3ccc(Cl)cc3)C2=O)c(C)n1-c1sc2c(c1C#N)CCCC2	?
C[Se]C[C@@H](N)C(=O)O	-3%
Cc1cc(OCC(=O)NCC(O)c2ccccc2)c2c3c(c(=O)oc2c1)CCC3 (stereo not given)	-5%
CCc1cccc(C)c1N(C(=O)CCl)C(C)COC (stereo not given)	0%
CCOC(=O)C1=CC(=C2C(=O)N(CC)C(=S)N(CC)C2=O)c2ccccc2O1	?
CCN(CC)CCSc1nc2ccccc2c(=O)n1-c1ccc(Cl)cc1	-15%
CN(C)C(=O)Oc1ccc(C(=O)c2ccccc2)cc1	-9%
N=Cc1c(O)n(-c2cccc(Cl)c2)c(=O)[nH]c1=O	-9%
CC(=O)O[C@H]1C[C@@H]2OC3C=C(C)CCC3(C)[C@@]1(C)[C@@]21CO1 (stereo not given in full)	-11%
Cc1cccc(N2C(=O)NC(=O)C3(Cc4cc(C)ccc4N(C)C3)C2=O)c1 (stereo not given)	-8%
COc1cccc(N2C(=O)NC(=O)/C(=C\c3ccc([N+](=O)[O-])s3)C2=O)c1	?
O=C(NC(=O)c1c(F)cccc1F)Nc1cc(Cl)c(OC(F)(F)C(F)C(F)(F)F)cc1Cl (stereo not given)	7%&-2%
CN1CCN(Cc2cc3c(cc2[N+](=O)[O-])OCO3)CC1	-7%
CCn1c(=O)n(CC(=O)N2CCC3(CC2)OCCO3)c(=O)c2ccccc21	-2%
CCOP(=S)(NN(Cc1ccccc1)C(=O)c1ccccc1)OCC	-26%
COc1ccc(NC(=O)CN2C3CCC2CC(O)(c2cccnc2)C3)cc1OC (stereo not given)	?
Cc1cccc(N2C(=O)NC(=O)/C(=C\c3cnc(-c4ccccc4)nc3)C2=O)c1	50µM*
CN1CCN(c2ccc([N+](=O)[O-])c(N3CCCCC3)c2)CC1	-20%
COc1ccc(Br)cc1CNCCc1cccc(Cl)c1	-6%
Oc1cc2c(cc1CN1CCN(c3ccccc3)CC1)CCC2	13%
O=C(c1cc([N+](=O)[O-])ccc1N1CCNCC1)N1CCOCC1	-24%
O=C(O)CCn1cc(C=C2C(=O)NC(=S)NC2=O)c(-c2cc3ccccc3oc2=O)n1	?
